StopGo RLuc = FMDV 2A StopGo reporter, Renilla signal; 120,000 compounds, 0.32% hits; Potency, µM (doses to about 57.5 µM), inactives show at the highest dose signal change, negative = less light; HEK cells with a luciferase reporter of 2A StopGo recoding; active means well fitted falling curve with a large enough effect; inconclusive means small, poorly fitted or top-dose-only effect; inactive means no such curve, though single readings can be large or run the other way; also: nearly all actives have a fitted effect of over 55% in size; overnight with compound
StopGo FLuc = lowers the firefly signal of an FMDV 2A StopGo reporter. AID 1745856. Potency, µM (series often up to 57.5 µM), without a hit: at the highest dose signal change, negative = less light. 120,000 compounds, 0.23% hits. HEK cells with a luciferase reporter of 2A StopGo recoding; active = well fitted falling curve with a large enough effect; inconclusive = small, poorly fitted or top-dose-only effect; inactive = no such curve, though single readings can be large or run the other way; also: nearly all actives have a fitted effect of over 60% in size; overnight with compound
* marks the source's active call; other numbers are inactive results; u = inconclusive; & = joins results of further samples; [ ] = another dose, or the depositor's remark. % is scaled to controls: 0 for no effect and ±100 for the full control effect; potency is read from the fitted curve at half-maximal effect. Some of the compounds tested; count on the stated rates, not on these rows.

nr | Molecule | StopGo RLuc | StopGo FLuc
1 | COCCNc1oc(-c2ccccc2)nc1S(=O)(=O)c1ccc2c(c1)OCCO2 | 215.2%[activator] | 5.2%
2 | Cc1ccc(OCc2cc(=O)n3oc(C)cc3n2)c(NC(=O)c2ccccc2C(F)(F)F)c1 | 1.6% | 1.4%
3 | CCCCCn1c(CCNC(=O)c2ccc(F)cc2)nc2ccccc21 | 13.5% | 1.8%
4 | CCOC(=O)c1ccc(NC(=O)c2cc(=O)c3cc(CC)ccc3o2)cc1 | -6.5% | -6.5%
5 | COC(=O)c1cc(S(=O)(=O)N2CCN(c3ccc(C)cc3C)CC2)cn1C | -10.5% | -12.1%
6 | Cn1c(=O)c2c(-c3ccccc3)n3c(c2n(C)c1=O)C(c1ccc(C#N)cc1)Nc1ccccc1-3 (stereo not given) | 9.4% | -23.9%
7 | CCCCN(C)S(=O)(=O)c1ccc(NC(=O)Cc2nc(-c3ccccc3)oc2C)cc1 | 4.5% | -7.4%
8 | CN(CC(=O)NC(=O)NCc1ccco1)Cc1cccs1 | -15.5%[1.06 µM] | 7.8%
9 | O=C(Nc1nonc1-c1ccc(Cl)cc1)c1ccccc1F | 52.1%&72.1%[activator] | 23.9%&45.4%
10 | Cc1ccc(NC2=C(C(=O)N3CCOCC3)S(=O)(=O)c3ccccc32)cc1F | 42.6%[activator] | -4.4%
11 | COc1ccc(Nc2nc(N3CCOCC3)c3cnn(C)c3n2)cc1 | 6.4% | 12.4%
12 | CC(=O)N1CCc2cc(CNC(=O)Cc3ccc(F)cc3)ccc21 | -4.6% | 84.6%[activator]
13 | Cc1ccccc1CNC(=O)c1ccc(CS(=O)Cc2ccc(Cl)cc2)o1 (stereo not given) | 11.0% | -12.8%
14 | CCn1cc(C(=O)N(C)CC(=O)NC(C)(C)C)c2ccccc21 | 3.1% | 24.3%
15 | COc1ccc(-n2ccnc(NCCc3ccc(Cl)cc3)c2=O)cc1OC | u | u
16 | Cc1ccc(C2C(C(=O)c3cccs3)=C(O)C(=O)N2c2nncs2)cc1 (stereo not given) | 17.2% | 81.8%[activator]
17 | CCN(CC)C(=O)Cn1ncc2c([nH]c3ccc(C)cc32)c1=O | -14.5% | -13.2%
18 | Cc1cc(C(=O)OCc2cccc(C#N)c2)c(C)o1 | 9.8% | 0.0%
19 | CCOc1ccc(Br)cc1S(=O)(=O)NCCN1CCCC1 | 142.6%[activator] | 4.6%
20 | C[C@@H](N)[C@@H](O)c1ccccc1 | -5.8% | -3.6%[11.5 µM]
21 | Cc1cc(C)cc(NC(=O)C(Sc2nnc(-c3ccoc3C)o2)c2ccccc2)c1 (stereo not given) | 67.1%[activator] | 74.5%[activator]
22 | COc1cccc(NC(=O)Cn2c(=O)n(Cc3ccccc3)c(=O)c3ccccc32)c1 | 6.3% | -5.4%
23 | Nc1nc(CSc2nnnn2-c2ccccc2)nc2ccccc12 | 4.0% | 0.0%
24 | COC(=O)CNC(=O)Cn1ccc2ccc(Cl)cc21 | -5.2% | 4.7%
25 | Cc1c(C(=O)N(Cc2ccccc2F)C2CCS(=O)(=O)C2)oc2ccccc12 (stereo not given) | 11.9% | -11.8%
26 | Cc1ccc(S(=O)(=O)CC(=O)Nc2cc(C(C)C)no2)cc1 | 35.0%[activator] | 22.3%
27 | Cc1c(C(=O)N(C)C)sc2c1c(=O)n(-c1ccc(Cl)c(Cl)c1)c(=O)n2CC(=O)C(C)(C)C | -5.0% | -17.4%
28 | Cc1ccc2c(Cl)cc(Cl)c(OCC(=O)N3CCCCC3)c2n1 | 35.5%[activator] | 3.1%
29 | COc1ccc2oc(=O)c(S(=O)(=O)c3ccc(C)c(C)c3)cc2c1 | -5.5% | -11.8%
30 | Cc1oc(-c2ccccc2)nc1C(=O)Nc1ccc(F)c(F)c1 | 8.5% | 17.8%

The list goes on.
nr | Molecule | StopGo RLuc | StopGo FLuc
31 | Cc1cccc(NC(=O)COc2ncnc3ccccc23)c1C | -6.9% | -1.1%
32 | O=C(NCCc1ccccc1)C1CCN(c2nc3ccccc3nc2C(F)(F)F)CC1 | -3.9% | -4.1%
33 | O=C(CSc1ncc2c(n1)-c1cc(Cl)ccc1N(Cc1ccccc1)S2(=O)=O)Nc1ccc(F)cc1F | -2.7% | 12.5%
34 | Cc1cc(C)c2c(CC(=O)Nc3ccc(S(=O)(=O)N4CCCC(C)C4)cc3)coc2c1 (stereo not given) | -4.1% | -11.4%
35 | COc1ccc(NC(=O)c2c(NCc3ccc(C)o3)sc3c2CCC(C)C3)cc1 (stereo not given) | u | 5.6%
36 | COc1ccc(C2CC(=O)c3c([nH]c(C(=O)OC4CCCC4)c3C)C2)cc1OC (stereo not given) | 29.1% | 0.0%
37 | CC(C)=CC(=O)NC1CCCc2ccccc21 (stereo not given) | 12.2% | 9.8%
38 | CC(OC(=O)C1=CN2CCS(=O)(=O)N=C2C=C1)C(=O)Nc1ccccc1 (stereo not given) | 4.3% | 8.2%
39 | COc1cc(C2c3c(-c4cc(C)ccc4O)n[nH]c3C(=O)N2Cc2cccnc2)cc(OC)c1OC (stereo not given) | 10.8%&38.4% | 21.5%&-16.4%
40 | COc1cc(/C=C/C(=O)c2ccc3c(c2)OCCO3)cc2c1OCO2 | -2.3% | 0.0%
41 | Cc1ccc(C)c(C(=O)COC(=O)c2ccccc2C)c1 | 12.3% | 0.0%
42 | Cc1noc(Cn2c(=O)c(C#N)cn(C3CC3)c2=O)n1 | -8.8% | -0.7%
43 | COc1cc(NC(=O)NCC2CCN(Cc3ccccc3Cl)CC2)cc(OC)c1OC | -6.1% | -15.5%
44 | CCN(CC)C(=O)c1ccccc1NS(=O)(=O)C(F)(F)F | 14.8% | -6.0%
45 | CCOc1ccccc1Oc1coc2cc(OC(=O)c3ccc(F)cc3)ccc2c1=O | 9.8% | 69.5%[activator]
46 | CCOC(=O)c1c(C)[nH]c(C)c1S(=O)(=O)N(C)CC(=O)Nc1cc(Cl)ccc1OC | 61.8%[activator] | 0.0%
47 | CC(C)CCn1c(SCCO)nc2c1c(=O)[nH]c(=O)n2C | -2.7% | 1.0%
48 | O=C(CCc1c[nH]c2ccccc12)N1CCCCCC1 | 37.1%[activator] | 99.0%[activator]
49 | N#C/C(=C/c1ccc2ncccc2c1)c1nc2ccccc2[nH]1 | 0.6% | 46.1%[activator]
50 | O=C(NCc1ccccc1)c1cc2ccc3cccnc3c2[nH]1 | 126.2%[activator] | 112.1%[activator]
51 | CCNC(=O)NC(=O)CN(CC)CC(C)C(=O)OC (stereo not given) | -11.6% | 2.1%
52 | CCOC(=O)c1ccc(NC(=O)CSc2nc3cc4ccccc4cc3[nH]2)cc1 | -0.2% | 22.5%
53 | Clc1cccc(-n2ncc3c(N4CCCCC4)ncnc32)c1 | 4.6% | 90.5%[activator]
54 | Cc1c(C(=O)N2CCOC(C)C2)cnn1-c1ccccc1F (stereo not given) | 2.6% | 34.0%[activator]
55 | CCc1ccc2c(c1)c(=O)c(S(=O)(=O)c1ccc(F)cc1)cn2CC(=O)Nc1ccc(C)cc1C | -19.6% | -12.2%
56 | O=C(O)CC1(CC(=O)O)CCCC1 | -2.0% | -10.0%
57 | COc1ccc(NC(=O)c2sc3nc4n(c(=O)c3c2C)CCC4)cc1Cl | 2.2% | 23.7%
58 | CC(=O)Nc1ccc(NC(=O)COC(=O)Cc2cccc3ccccc23)cc1 | 6.2% | -0.4%
59 | CCN(CC)c1ccc(-c2nnc(SC(C)C(=O)NC3CCCCCC3)o2)cc1 (stereo not given) | 50.4%[activator] | 111.4%[activator]
60 | O=c1c2cc3c(nc2ncn1Cc1ccccc1F)CCCC3 | 5.6% | 7.5%

Another view of 17 compounds above:
Under each structure: StopGo RLuc, StopGo FLuc
[44] CCN(CC)C(=O)c1ccccc1NS(=O)(=O)C(F)(F)F
  14.8%, -6.0%
[45] CCOc1ccccc1Oc1coc2cc(OC(=O)c3ccc(F)cc3)ccc2c1=O
  9.8%, 69.5%[activator]
[46] CCOC(=O)c1c(C)[nH]c(C)c1S(=O)(=O)N(C)CC(=O)Nc1cc(Cl)ccc1OC
  61.8%[activator], 0.0%
[47] CC(C)CCn1c(SCCO)nc2c1c(=O)[nH]c(=O)n2C
  -2.7%, 1.0%
[48] O=C(CCc1c[nH]c2ccccc12)N1CCCCCC1
  37.1%[activator], 99.0%[activator]
[49] N#C/C(=C/c1ccc2ncccc2c1)c1nc2ccccc2[nH]1
  0.6%, 46.1%[activator]
[50] O=C(NCc1ccccc1)c1cc2ccc3cccnc3c2[nH]1
  126.2%[activator], 112.1%[activator]
[51] CCNC(=O)NC(=O)CN(CC)CC(C)C(=O)OC (stereo not given)
  -11.6%, 2.1%
[52] CCOC(=O)c1ccc(NC(=O)CSc2nc3cc4ccccc4cc3[nH]2)cc1
  -0.2%, 22.5%
[53] Clc1cccc(-n2ncc3c(N4CCCCC4)ncnc32)c1
  4.6%, 90.5%[activator]
[54] Cc1c(C(=O)N2CCOC(C)C2)cnn1-c1ccccc1F (stereo not given)
  2.6%, 34.0%[activator]
[55] CCc1ccc2c(c1)c(=O)c(S(=O)(=O)c1ccc(F)cc1)cn2CC(=O)Nc1ccc(C)cc1C
  -19.6%, -12.2%
[56] O=C(O)CC1(CC(=O)O)CCCC1
  -2.0%, -10.0%
[57] COc1ccc(NC(=O)c2sc3nc4n(c(=O)c3c2C)CCC4)cc1Cl
  2.2%, 23.7%
[58] CC(=O)Nc1ccc(NC(=O)COC(=O)Cc2cccc3ccccc23)cc1
  6.2%, -0.4%
[59] CCN(CC)c1ccc(-c2nnc(SC(C)C(=O)NC3CCCCCC3)o2)cc1 (stereo not given)
  50.4%[activator], 111.4%[activator]
[60] O=c1c2cc3c(nc2ncn1Cc1ccccc1F)CCCC3
  5.6%, 7.5%

(listing goes on)
nr | Molecule | StopGo RLuc | StopGo FLuc
61 | Cn1cc(S(=O)(=O)N2CCCCC2)cc1C(=O)N1CCN(c2ccc(F)cc2)CC1 | -5.4% | -1.0%
62 | O=C(NCc1cccs1)c1ccc2c(c1)OCCCO2 | 44.7%[activator] | 76.8%[activator]
63 | CCOC(=O)c1cc(-c2ccc(S(=O)(=O)Nc3c(C)cccc3C)s2)on1 | -6.2% | 2.1%
64 | CCSc1nc2c(c(=O)[nH]c(=O)n2C)n1CC(O)COc1ccccc1C (stereo not given) | -7.0% | -9.3%
65 | CC(=O)N1CCC2(CC1)CC(=O)c1ccc(OCC(=O)NCCC(C)C)cc1O2 | 2.3% | 3.7%
66 | COc1ccc(C(C)=O)cc1CN1CCC(CN(C)Cc2ccccc2)CC1 | -10.5% | -18.5%
67 | Cc1ccc(Cc2nc3ccccc3nc2SCC(=O)N2CCN(c3ccccc3)CC2)cc1 | -3.1% | 16.9%
68 | NNc1cc(C(F)(F)F)ccc1Cl | -12.5% | 3.9%
69 | Cc1cccc(NC(=O)Cc2c(C)nc3nc(-c4cccs4)nn3c2C)c1C | -8.5% | -0.4%
70 | Cc1nc(NC2CC2)sc1C(=O)NCCc1ccccc1 | -9.8% | 142.3%[activator]
71 | CCNC(=O)C(C)Sc1nc(-c2ccco2)nc2ccccc12 (stereo not given) | -8.9% | -2.1%
72 | O=C(NCc1ccc(Cl)cc1Cl)C1CCCN(c2ncnc3nc[nH]c23)C1 (stereo not given) | -8.0% | -5.9%
73 | COc1ccc(CCNCc2ccccc2C)cc1 | -8.4% | -0.1%
74 | COc1ccc(C2CCCN2CC(=O)N2CCN(c3cccc(C(F)(F)F)c3)CC2)c(OC)c1 (stereo not given) | -7.6% | -9.2%
75 | CCN(CC)c1ccc(CC2C(=O)N(C)c3ccc(Br)cc32)cc1 (stereo not given) | -4.9% | -1.3%
76 | CCCOc1cccc(C(=O)Nc2ccc3oc(-c4cccnc4)nc3c2)c1 | 14.0% | 22.0%
77 | CN(C)Cc1ccc(O)cc1 | 8.2% | 1.2%
78 | O=C(CCCCn1c(=O)c2ccccc2n(Cc2ccc(F)cc2Cl)c1=O)NCCc1ccc(Cl)cc1 | -10.8% | -20.9%
79 | O=S(=O)(CCSc1ccc(Br)cc1)c1ccc(Cl)cc1 | 10.3% | 10.3%
80 | O=C(CSc1nccn1Cc1ccc2c(c1)OCO2)Nc1ccccc1F | 30.7%[activator] | 3.0%
81 | Cc1cc(=O)oc2cc(OCC(=O)Nc3ccc(O)c(C(=O)O)c3)ccc12 | -1.1% | 0.8%
82 | CCN(c1ccccc1)S(=O)(=O)c1nnc(NC(=O)c2ccccc2)s1 | 15.6% | -4.9%
83 | Cc1ccc(C)c(N2CCN(C(=O)c3ccc4[nH]c(C)c(C)c4c3)CC2)c1 | 42.6%[activator] | 1.2%
84 | CNc1ccc(-c2nc(-c3ccccn3)no2)cc1[N+](=O)[O-] | 17.4% | 164.3%[activator]
85 | CNC(=O)c1ccc(-c2nc(CN3CCN(C(=O)Nc4cccc(C)c4)CC3)c(C)o2)cc1 | -3.1% | 0.1%
86 | COc1ccc(Oc2nc(-c3ccccn3)nc3ccccc23)cc1 | u | 39.0%[activator]
87 | N#Cc1cccc(Oc2ccc(C(=O)c3ccccc3)cc2)c1C#N | -24.2% | -24.2%
88 | COCCNC(=S)N/N=C/c1cc(OC)c(OC)cc1OC | -5.8%[1.06 µM] | 10.4%
89 | CC(C)Cc1nc(N2CCN(C(=O)C(=O)NCCc3ccccc3)CC2)c(C#N)c2c1CCCC2 | 34.2%[activator] | 3.3%
90 | Cc1ccc(C(C)C)c(OCC(=O)Nc2cc(C(F)(F)F)ccc2N2CCOCC2)c1 | 27.4% | 34.3%[activator]
91 | CC(C)n1nnc2cc(C(=O)N(C)CC(=O)Nc3cccc(C#N)c3)ccc21 | 23.5% | 39.4%[activator]
92 | COc1ccc(N)cc1OC1CCCC1 | -0.5% | 7.2%

Bioassay records from PubChem BioAssay.
